HPDE-C7 cytotoxicity = HPDE-C7 pancreatic duct cell viability loss – fluorescence, HTS (AID 430) | HPDE-C7 pancreatic duct cells viability, fluorescence; higher % means a stronger effect | cytotoxicity, % at 10 µM; hits with a dose series show EC50 in µM | 1.8% of 63,000 active;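 also: cells exposed to compound for 48 hours before viability readout; 0% = vehicle and 100% = reference cytotoxic drug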
Bfl-1 displacement = displacement of Bid BH3 peptide from Bfl-1 – biochemical, fluorescence polarization, FITC-Bid, mouse, primary screen (AID 432) | FITC-Bid BH3 peptide fluorescence polarization displacement; higher % means a stronger effect | one-dose displacement, % at 20 µM; IC50 in µM for titrated hits | 0.02% of 64,000 active; in the data active = a potency from the dose series; inactive = the rest, 99 in 100 with displacement below about 15%; also: strong numbers were not always called active
HT1080 viability = HT1080 cell viability loss – fluorescence readout (AID 620); cytotoxicity, % at 10 µM, or EC50 in µM where a hit was titrated; 0.42% of 87,000 active; HT1080 viability, fluorescence; higher % means a stronger effect;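 also: cells exposed to compound overnight then 4 h with Alamar Blue; 0% = vehicle DMSO and 100% = killing control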
TNAP inhibition = human TNAP enzyme inhibitors, biochemical, luminescent (AID 518) | purified TNAP enzyme, luminescent substrate readout; higher % means a stronger effect | one-dose inhibition, % at 20 µM; IC50 in µM for titrated hits | 0.09% of 64,000 active; in the data active = a potency from the dose series; inactive = the rest, 99 in 100 with inhibition below about 22%;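 also: plate controls were vehicle for no effect and reference inhibitor for full effect; many of its hits are not listed in these tables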
KRASV12 cytotoxicity = cytotoxicity in KRAS-transformed pancreatic duct cells, primary screen, cell-based, fluorescence, HTS (AID 431). HPDE-C7K KRASV12 cells, Alamar Blue viability, 48 h; higher % means a stronger effect. cytotoxicity, % at 10 µM; hits with a dose series show EC50 in µM. 1.7% of 63,000 active;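 active = compounds whose percent cytotoxicity in the single-dose primary screen, scaled between solvent and toxic-drug controls, exceeds 50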;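 also: 0% = DMSO solvent wells and 100% = doxorubicin-treated wells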
LYP inhibition = LYP phosphatase inhibitors, primary screen, biochemical, DiFMUP fluorescence, recombinant catalytic domain, 10 µM (AID 606). recombinant LYP catalytic domain, DiFMUP fluorescence; higher % means a stronger effect. inhibition, % at 10 µM, or IC50 in µM where a hit was titrated. 52,000 tested, under 10 active;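 active = IC50 under 40 µM in the dose-response test; inactive = IC50 of 40 µM or more, or never dose-tested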
An asterisk follows results filed as active; x = not tested or not shown. Rule as the data show it, unless noted: active = cytotoxicity above about 50%; inactive = the rest. Some of the compounds tested, so the mix of outcomes need not match the whole.

SMILES	HPDE-C7 cytotoxicity	Bfl-1 displacement	HT1080 viability	TNAP inhibition	KRASV12 cytotoxicity	LYP inhibition
CCCOc1ccc(N2C(=O)C3ON(c4ccccc4)C(c4ccc(O)c(OC)c4)C3C2=O)cc1 (stereo not drawn)	15%	7%	-3%	18%	82%*	-2%
COCCNC(=O)C(c1ccc(O)cc1)N(Cc1ccco1)C(=O)CCC(=O)Nc1nccs1 (stereo not drawn)	-8%	0%	4%	10%	-10%	0%
CCOC(=O)N1CCN(c2c(F)cc3[nH]c(=S)[nH]c3c2Br)CC1	28%	-2%	-6%	0%	27%	5%
COc1cccc2c(=O)c(C/C=C(/C)Cl)c(C)[nH]c12	x	-2%	1%	11%	x	14%
CC(=O)Nc1cccc(NC(=O)CSc2nc(C)c(C)c(C)c2C#N)c1	17%	5%	-11%	10%	2%	x
CC(NC(=O)CC(O)(C(F)(F)F)C(F)(F)F)c1ccccc1 (stereo not drawn)	4%	-1%	2%	9%	1%	5%
COc1ccc(-c2nnc(SCc3csc(N)n3)n2C)cc1	-4%	1%	3%	5%	-6%	12%
CCOC(=O)C1(O)CSc2nc3sc(C(=O)O)c(C)c3c(=O)n21 (stereo not drawn)	-6%	-4%	-4%	7%	-18%	x
COc1ccccc1NC(=O)c1nnn(CC(=O)Nc2cccc(SC)c2)c1N	-13%	6%	-2%	9%	-7%	9%
CC(=O)Nc1ccc(N2CCN(C(C)=O)CC2)cc1	-10%	0%	-8%	13%	-10%	9%
CCOC(=O)c1cnc(-c2ccccc2)[nH]c1=O	-15%	6%	5%	7%	-48%	6%
Fc1ccc(CN2CCCCCCC2)cc1F	x	-2%	-4%	8%	x	16%
COc1cccc(-c2cc(C(F)(F)F)n3ncc(C(=O)NCC4CCCO4)c3n2)c1 (stereo not drawn)	x	-9%	0%	17%	x	x
Cc1csc2ncc(C(=O)Nc3ccccc3F)c(=O)n12	51%*	3%	2%	3%	3%	7%
Cn1c(-c2ccccc2)cnc1SCC(N)=O	-5%	-1%	-7%	14%	-3%	x
O=c1c2nnn(Cc3ccccc3)c2ncn1-c1ccccc1	-6%	-4%	-3%	3%	1%	-2%
O=C1COc2ccc(C(=O)COC(=O)c3ccc4ccccc4n3)cc2N1	-12%	-4%	12%	10%	-8%	6%
CCNc1nc(Oc2ccc(=O)n(C)n2)nc(N2CCOCC2)n1	-1%	-3%	6%	8%	1%	7%
COc1ccc(Cl)c(Cn2c(NCC(C)O)nc3c2c(=O)n(C)c(=O)n3C)c1 (stereo not drawn)	-10%	-12%	44%	2%	-6%	12%
Cc1cc(=O)[nH]c2n[nH]c(-c3ccccc3)c12	x	-6%	-26%	4%	x	8%

Compound profiles, as listed above.
COc1cccc2c(=O)c(C/C=C(/C)Cl)c(C)[nH]c12 across the screens: HPDE-C7 cytotoxicity = x; Bfl-1 displacement = -2%; HT1080 viability = 1%; TNAP inhibition = 11%; KRASV12 cytotoxicity = x; LYP inhibition = 14%
CCCOc1ccc(N2C(=O)C3ON(c4ccccc4)C(c4ccc(O)c(OC)c4)C3C2=O)cc1 (stereo not drawn) across the screens: HPDE-C7 cytotoxicity = 15%; Bfl-1 displacement = 7%; HT1080 viability = -3%; TNAP inhibition = 18%; KRASV12 cytotoxicity = 82%*; LYP inhibition = -2%

2 compounds drawn at random from the list so far, as already listed:
SMILES	HPDE-C7 cytotoxicity	Bfl-1 displacement	HT1080 viability	TNAP inhibition	KRASV12 cytotoxicity	LYP inhibition
Fc1ccc(CN2CCCCCCC2)cc1F	x	-2%	-4%	8%	x	16%
COc1ccccc1NC(=O)c1nnn(CC(=O)Nc2cccc(SC)c2)c1N	-13%	6%	-2%	9%	-7%	9%

Structures shown so far that have a CF3 group:
SMILES	HPDE-C7 cytotoxicity	Bfl-1 displacement	HT1080 viability	TNAP inhibition	KRASV12 cytotoxicity	LYP inhibition
CC(NC(=O)CC(O)(C(F)(F)F)C(F)(F)F)c1ccccc1 (stereo not drawn)	4%	-1%	2%	9%	1%	5%
COc1cccc(-c2cc(C(F)(F)F)n3ncc(C(=O)NCC4CCCO4)c3n2)c1 (stereo not drawn)	x	-9%	0%	17%	x	x

Remaining list, next part.
SMILES	HPDE-C7 cytotoxicity	Bfl-1 displacement	HT1080 viability	TNAP inhibition	KRASV12 cytotoxicity	LYP inhibition
COC(=O)c1sc(NC(=O)c2ccco2)nc1C	-4%	-6%	-9%	6%	-3%	2%
CCn1c(SCC(=O)Nc2ccccc2-c2ccccc2)nnc1-c1ccoc1C	3%	3%	0%	10%	-2%	5%
O=C(c1ccco1)N1CCN(Cc2ccc(Cl)cc2)CC1	-4%	1%	22%	6%	8%	10%
COc1cc(OC)cc(C(=O)N2CCC(N3CCN(c4ccccc4)CC3)CC2)c1	19%	3%	3%	1%	11%	0%
COc1ccc(Cl)cc1S(=O)(=O)N1CCN(C(=O)COc2ccccc2)CC1	-13%	-9%	-4%	9%	-3%	x
CCOC(=O)N1CCC(NC(=O)c2cc(S(=O)(=O)N3CCC4(CC3)OCCO4)ccc2F)CC1	-1%	-1%	-7%	3%	-4%	8%
CCN1CCN(Cc2ccc(OC)c(OCc3ccccc3)c2)CC1	2%	2%	3%	8%	-8%	12%
Cc1nc2sc(C(c3ccc(Cl)cc3)N3CCN(c4ccccc4F)CC3)c(O)n2n1 (stereo not drawn)	11%	-12%	-1%	-4%	1%	-2%
Oc1ccc(-c2n[nH]c(=S)n2Cc2ccccc2)cc1	4%	2%	-13%	23%	2%	-6%
Nc1ccc(-c2cnc(-c3ccc(N)cc3)nc2)cc1	4%	-4%	0%	6%	12%	-2%
Cn1c(=O)[nH]c(=O)c2c1nc(CN1CCN(c3ccc(F)cc3)CC1)n2CCc1ccccc1	x	x	45%	x	x	0%
COc1ccc(-c2nnc(NC(=O)c3ccc(S(=O)(=O)N4CCCc5ccccc54)cc3)o2)cc1	53%*	-2%	2%	4%	49%	7%
Cc1ccc(CN2CC(C(=O)Nc3ccc4c(C)cc(=O)oc4c3)CC2=O)cc1 (stereo not drawn)	5%	1%	-2%	13%	8%	13%
CCN(CC)/C(=N/O)NC(=O)NS(=O)(=O)c1ccc(C)cc1	-15%	-3%	-2%	11%	-16%	16%
CCOC(=O)N1CCN(Cc2c(F)cccc2Cl)CC1	-7%	-13%	7%	7%	-12%	x
N#Cc1cc2c(nc1SCC(=O)N1CCCCC1)CCCC2	-12%	2%	0%	12%	-3%	10%
C=CCn1cnc2c(NCc3ccccc3)ncnc21	6%	6%	-1%	9%	2%	7%
Cc1ccc2[nH]c3nc(SCCN4CCOCC4)nnc3c2c1	-3%	7%	5%	14%	-1%	18%
Cc1cccc(-c2nnc(SCC#N)n2Cc2ccccc2)c1	-1%	-5%	-1%	10%	5%	x
S=c1nc(-c2ccccc2)n(CCCN2CCOCC2)c2c1CCCC2	-6%	3%	15%	6%	-14%	5%

Copied from the list.
Under TNAP inhibition, COc1cc(OC)cc(C(=O)N2CCC(N3CCN(c4ccccc4)CC3)CC2)c1 is entered as 1%
Under TNAP inhibition, CCOC(=O)N1CCN(Cc2c(F)cccc2Cl)CC1 is entered as 7%
Under Bfl-1 displacement, C=CCn1cnc2c(NCc3ccccc3)ncnc21 is entered as 6%
Under HPDE-C7 cytotoxicity, COc1ccc(-c2nnc(NC(=O)c3ccc(S(=O)(=O)N4CCCc5ccccc54)cc3)o2)cc1 is entered as 53%*
Under HT1080 viability, Cn1c(=O)[nH]c(=O)c2c1nc(CN1CCN(c3ccc(F)cc3)CC1)n2CCc1ccccc1 is entered as 45%

Next part
SMILES	HPDE-C7 cytotoxicity	Bfl-1 displacement	HT1080 viability	TNAP inhibition	KRASV12 cytotoxicity	LYP inhibition
CC(CN1CCNCC1)(NS(=O)(=O)c1ccccc1)c1ccccc1 (stereo not drawn)	6%	-5%	2%	15%	-4%	1%
Cc1ccc2nc(NC3=NCN(CCc4ccccc4)CN3)nc(C)c2c1	16%	-4%	2%	10%	32%	9%
COC(=O)C(NC(C)=O)(Nc1ccc(Br)cc1)C(=O)OC	41%	-1%	-4%	11%	53%*	3%
CC1CCCCC1NC(=O)c1ccc(N2CCCC2=O)cc1 (stereo not drawn)	-18%	3%	-7%	5%	-19%	6%
CCC1=C/C(=C/N(C)c2ccccc2)C(=O)S1	-2%	7%	-1%	7%	-16%	x
N#CC1=C2SCN(Cc3ccccc3)CN2C(=O)CC1c1ccccc1F (stereo not drawn)	2%	-2%	-7%	7%	6%	0%
Cc1ccc2occ(C(=O)c3ccco3)c(=O)c2c1	-7%	-2%	-7%	15%	-3%	x
Cn1c(=O)[nH]c(=O)c2c1nc(N1CCCC1)n2CC(O)COc1ccccc1 (stereo not drawn)	5%	-8%	3%	7%	2%	6%
COc1cccc2cc(C(=O)NC(C)C3CCCO3)c(=O)oc12 (stereo not drawn)	16%	-3%	7%	13%	18%	x
O=C(c1cc2n(n1)C(C(F)(F)F)CC(c1ccc(F)cc1)N2)N1CCCC1 (stereo not drawn)	-1%	2%	30%	8%	-4%	7%
Cc1cc(N(C)Cc2ccccc2)nc(-c2ccccc2)n1	3%	2%	x	6%	4%	x

Screens (PubChem BioAssay)
